Six1-Eya2 blk: blocks human Six1 binding to Eya2; activity change, % (concentration not given with the values); AlphaScreen GST-Six1/His-Eya2 binding, biochemical; active compounds read low; control for the full effect not named in the record; actives 0.56% (n = 360,000); AID 651725; Q15475+O00167; in the data active = activity change below about -65%; inconclusive = about -30% to -65%; inactive = above about -30%; note: % is set by controls: 0 for no effect and ±100 for the full control effect
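Compounds are tested against tagged Six1 and Eya2 proteins bridged by glutathione donor and nickel acceptor beads; after a one-hour incubation at 37 °C without light, AlphaScreen emission is recorded.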
TRPML1 ag: human mucolipin-1 channel agonism; Q9GZU1; TRPML1-expressing cells, Ca2+ dye fluorescence, FDSS; host cell line not named in the record; reference of the full effect not given here; activation, % (test concentration not listed); actives 0.12% (n = 410,000); in the data active = activation above about 50%; inconclusive = about 30% to 50%; inactive = below about 30%; note: 0% is about no effect; the text of the record puts the active cut at 80%
Target sequence (Q9GZU1 whole entry, looked up): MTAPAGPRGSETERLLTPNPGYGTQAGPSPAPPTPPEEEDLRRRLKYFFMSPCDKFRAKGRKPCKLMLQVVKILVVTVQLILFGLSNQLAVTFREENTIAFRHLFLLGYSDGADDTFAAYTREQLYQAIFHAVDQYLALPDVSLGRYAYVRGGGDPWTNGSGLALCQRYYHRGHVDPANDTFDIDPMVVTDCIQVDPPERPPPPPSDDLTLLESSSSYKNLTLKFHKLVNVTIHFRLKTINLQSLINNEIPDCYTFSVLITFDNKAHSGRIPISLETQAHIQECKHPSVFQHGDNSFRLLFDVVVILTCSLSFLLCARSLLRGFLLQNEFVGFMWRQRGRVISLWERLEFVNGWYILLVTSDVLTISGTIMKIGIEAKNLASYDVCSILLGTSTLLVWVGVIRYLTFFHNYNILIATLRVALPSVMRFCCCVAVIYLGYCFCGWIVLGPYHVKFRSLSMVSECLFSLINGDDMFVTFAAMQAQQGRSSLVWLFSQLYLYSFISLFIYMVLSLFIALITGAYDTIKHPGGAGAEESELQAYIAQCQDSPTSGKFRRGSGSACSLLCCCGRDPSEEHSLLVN
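Tet-induced TRPML1-DL cells, 1,500 per well, cultured overnight, were loaded with a no-wash Ca2+ dye for 45–90 min. Calcium fluorescence was recorded on the FDSS for 110 s after compound addition, before the EC80 agonist (4 uM 54-4) was added.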
D2 ag: agonists of human D2 dopamine receptor (beta-arrestin); AID 624465; activation, % (concentration not given with the values); actives 0.084% (n = 360,000); DiscoveRx PathHunter D2 beta-arrestin, luminescence, 90 min; 100% = 57 uM dopamine signal; P14416; in the data active = activation above about 40%; inconclusive = about 15% to 40%; inactive = below about 15%; note: compound concentration not given in the record; the text of the record calls up to 30% inactive
Target sequence (P14416 whole entry, looked up): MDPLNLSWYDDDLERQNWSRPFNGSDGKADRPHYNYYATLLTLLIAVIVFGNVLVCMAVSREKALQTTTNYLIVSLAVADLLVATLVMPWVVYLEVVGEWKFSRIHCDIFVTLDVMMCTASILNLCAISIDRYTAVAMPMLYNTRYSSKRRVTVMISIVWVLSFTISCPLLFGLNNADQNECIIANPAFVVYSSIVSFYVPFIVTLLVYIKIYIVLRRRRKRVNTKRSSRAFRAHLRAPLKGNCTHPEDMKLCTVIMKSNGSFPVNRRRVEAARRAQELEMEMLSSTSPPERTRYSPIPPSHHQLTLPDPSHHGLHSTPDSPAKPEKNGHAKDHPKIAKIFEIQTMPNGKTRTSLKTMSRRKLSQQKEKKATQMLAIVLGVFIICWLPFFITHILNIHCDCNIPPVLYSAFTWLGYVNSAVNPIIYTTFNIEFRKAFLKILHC
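DiscoveRx PathHunter D2 beta-arrestin cells (2,100/well) attached overnight, then compound-stimulated 90 min at 37 C in HBSS/10 mM HEPES/0.1% Tween-20 buffer; beta-galactosidase complementation read by luminescence after 1 h at ambient temperature. Dopamine 57 uM final (EC100) as control.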
TRPML1 blocker: human mucolipin-1 channel inhibition; Q9GZU1; TRPML1-inducible cells, Ca2+ dye fluorescence, FDSS; active compounds read low; inhibition of EC80 agonist-evoked calcium signal; activity change, negative = inhibition, % (concentration not given with the values); actives 0.02% (n = 390,000); AID 624415; in the data active means activity change below about -50%; inconclusive means about -30% to -50%; inactive means above about -30%;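 note: stimulus is agonist 54-4 at its EC80 concentration; % is set by controls: 0 for no effect and ±100 for the full control effect; the text of the record puts the active cut at -80%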
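TRPML1-DL cells, Tet-induced overnight (~16 h, 37 °C) at 1,500 cells/well, were loaded with Ca8 no-wash dye plus quencher for 45-90 min at room temperature. Compounds were pinned during FDSS kinetic reading; agonist 54-4 at EC80 (4 uM final) then added.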
D2 potentiator: human D2 receptor positive allosteric modulation. actives 0.23% (n = 360,000). DiscoveRx D2 beta-arrestin cells, luminescence, 90 min; 100% = 57 uM dopamine signal. AID 624464. potentiation, % (test concentration not listed); active = potentiation of 50% or more; inconclusive = 30% to 50%; inactive = 30% or less;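 note: compound concentration not given in the record; tested on top of an EC20 dose of dopamine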
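PathHunter D2 cells, attached overnight at 37 deg C, received compound in DMSO plus dopamine at EC20 (50 nM final) for 90 min at 37 deg C. Beta-arrestin recruitment was read as luminescence after 1 h with detection reagent at ambient temperature.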
PINK1 expr mod: PINK1 expression modulation; PINK1 immunofluorescence, high-content cytometry, 24 h; Potency, µM (titrated, usually from 76.6 µM), without a hit: at the highest dose activation (PINK1 increase), usual class: activators; actives 0.2% (n = 410,000); active = well fitted activation curve with a large enough effect; inconclusive = small, poorly fitted or top-dose-only effect; inactive = flat fitted curve, though single readings scatter; cell line not stated here;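 note: potency is the fitted concentration of half-maximal effect; % of control where 0% means no effect; nearly all actives have a fitted effect of over 65% in size; a mitochondrial uncoupler was the plate control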
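Compound titrations (5 concentrations, 24 h) on a stable cell line; DMSO and CCCP controls. Endpoint: fixed-cell PINK1 immunofluorescence with mitochondrial, cell and nuclear markers, scanned by microplate cytometer.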
Numbers without * were called inactive; ? = inconclusive; nt = not tested or not shown; & = joins results of further samples; [ ] = dose if it differs, or a comment.

#	SMILES	Six1-Eya2 blk	TRPML1 ag	D2 ag	TRPML1 blocker	D2 potentiator	PINK1 expr mod
1	O=C(NC(C(=O)N/N=C/c1ccccn1)c1n[nH]c(=O)c2ccccc12)c1ccccc1 (stereo unspecified)	-18	0.9	-2.1	21	0	3.1%
2	COc1ccc2cc3cc(C(=O)NCCN4CCc5ccccc5C4)sc3nc2c1	2	-1.2	2.6	2	-13	2.4%
3	O=C(c1ccc(NS(=O)(=O)c2ccc(Cl)cc2)cc1)N1CCOCC1	-8	-0.5	-1.5	-6	2	0.3%
4	COc1ccc(NC(=O)CCC(=O)Nc2nnc(C(C)C)s2)cc1Cl	8	0.1	-5.6	-15	-33	-1.2%
5	C=CC[C@@H](CC(=O)N[C@H](CO)Cc1ccccc1)C(=O)NCCOC(=O)[C@@H](CC=C)CC(=O)OC(C)(C)C	1	0.2	0.3	-10	2	-0.3%
6	COc1ccccc1NC(=O)C1CCN(C(=O)c2ccc(C(C)(C)C)cc2)CC1	4	0.2	-0.2	12	-7	-0.1%
7	Cc1ccc2cc(NC(=O)C3(C)CCN3C(C)C)ccc2n1 (stereo unspecified)	3	0.0	-1.9	nt	7	0.2%
8	COc1ccc(-n2c(Cc3ccccc3)nnc2SCc2nc(-c3ccccc3C)no2)cc1	nt	1.5	nt	-4	nt	1.2%
9	Cc1ccccc1-n1nc2c(c1NC(=O)c1cc3ccccc3oc1=O)CS(=O)C2 (stereo unspecified)	-4	-0.9	-1.9	-1	15	-0.5%
10	Cc1ccc(-c2cn3c4c(=O)n(C)c(=O)n(C)c4nc3n2-c2cccc(Cl)c2)cc1	nt	-0.3	nt	-5	nt	0.4%
11	Cc1ccccc1OCCSc1nc(N(C)C)nc(N(C)C)n1	4	1.5	1.7	-9	-3	15%
12	CCCCCCCN1CCC(=O)N([C@H](CO)Cc2ccccc2)CC1	-3	0.3&0.1	-4.8	21	-12	-0.7%
13	CCC1(C)Cc2c(sc3nc(SC)nc(NCCN(C)C)c23)CO1 (stereo unspecified)	-6	0.4	1.0	16	-34	nt
14	N#Cc1sc2nc(C3CC3)cc(-c3ccc(Cl)cc3)c2c1N	85	0.4	-1.9	86	21	1.1%
15	Nc1cccnc1Sc1ccccc1	4	0.9	0.5	4	-6	0.9%

Quoted at random: 3 compounds from above, in no set order.
#	SMILES	Six1-Eya2 blk	TRPML1 ag	D2 ag	TRPML1 blocker	D2 potentiator	PINK1 expr mod
3	O=C(c1ccc(NS(=O)(=O)c2ccc(Cl)cc2)cc1)N1CCOCC1	-8	-0.5	-1.5	-6	2	0.3%
14	N#Cc1sc2nc(C3CC3)cc(-c3ccc(Cl)cc3)c2c1N	85	0.4	-1.9	86	21	1.1%
1	O=C(NC(C(=O)N/N=C/c1ccccn1)c1n[nH]c(=O)c2ccccc12)c1ccccc1 (stereo unspecified)	-18	0.9	-2.1	21	0	3.1%

The listing continues.
#	SMILES	Six1-Eya2 blk	TRPML1 ag	D2 ag	TRPML1 blocker	D2 potentiator	PINK1 expr mod
16	CN(CC(=O)Nc1ccc2c(c1)OCO2)S(=O)(=O)c1ccc2c(c1)CCC(=O)N2	-1	-0.3	1.4	-5	-1	0.8%
17	Cc1nc2ccccc2nc1-c1ccc([N+](=O)[O-])cc1	-9	2.6	1.8	35	-4	0.7%
18	O=C(CSc1nc(O)c(C2CCCCC2)c(=O)[nH]1)Nc1ccc(Cl)cc1	1	-0.8	-2.4	-11	-15	-0.3%
19	Cc1ccc(C(=O)NCC(=O)OCC(=O)NC(C)C2CC3CCC2C3)cc1 (stereo unspecified)	8	0.8	1.2	-8	10	-1.1%
20	O=c1[nH]snc1N1CCOCC1	2	-0.2	-1.0	9	-5	0.1%
21	COc1ccc(-n2ccn(CC(=O)Nc3ccc(OC)cc3OC)c(=O)c2=O)cc1	4	0.2	-2.9	0	-4	1.5%
22	CSc1ccccc1NC(=O)CN(C)C(=O)COc1cccc2cccnc12	-85*	-0.3	9.0	6	-6	-0.1%
23	CCC(=O)N1c2ccc(S(=O)(=O)CCC(=O)NCCC3=CCCCC3)cc2CC1C (stereo unspecified)	7	-0.4	-0.1	-13	-35	-1.1%
24	Cc1ccc(OCC(=O)Nc2ccc3nc(SCC(=O)N4CCCC4)sc3c2)cc1C	nt	2.2	nt	13	nt	1.8%
25	CCC1(C(=O)c2ccccc2)C(c2ccc([N+](=O)[O-])cc2)C1(C(=O)OC)C(=O)OC (stereo unspecified)	0	1.4	-7.5	19	-10	0.0%
26	Cc1ccccc1OCC(O)CN1CCN(C)CC1 (stereo unspecified)	-1	0.7	-6.3	-14	-7	2.3%
27	CC(C)C[C@@H](CO)N1CCN(C)CCC1=O	6	-0.4&15	-2.5	5	-4	0.9%
28	COc1ccc(NS(=O)(=O)c2cccc3ccccc23)cc1	11	1.6	1.6	1	-6	4.3%
29	CCCN(CCC)CCCNC(=O)c1cn(-c2ccc(OC)cc2)c(=O)c2ccccc12	3	1.2	-7.1	-15	-9	-1.0%
30	CCN1C(=O)CS/C1=N\S(=O)(=O)c1ccccc1	-3	0.9	-1.4	8	-1	3.8%

Just TRPML1 ag and TRPML1 blocker, for 5 of the compounds above:
No.	Molecule	TRPML1 ag	TRPML1 blocker
20	O=c1[nH]snc1N1CCOCC1	-0.2	9
21	COc1ccc(-n2ccn(CC(=O)Nc3ccc(OC)cc3OC)c(=O)c2=O)cc1	0.2	0
22	CSc1ccccc1NC(=O)CN(C)C(=O)COc1cccc2cccnc12	-0.3	6
23	CCC(=O)N1c2ccc(S(=O)(=O)CCC(=O)NCCC3=CCCCC3)cc2CC1C (stereo unspecified)	-0.4	-13
24	Cc1ccc(OCC(=O)Nc2ccc3nc(SCC(=O)N4CCCC4)sc3c2)cc1C	2.2	13

Going on with the list.
#	SMILES	Six1-Eya2 blk	TRPML1 ag	D2 ag	TRPML1 blocker	D2 potentiator	PINK1 expr mod
31	Cc1cccn2c(=O)c(C=Nc3ccc(Cl)cc3)c(NCCO)nc12	-4	0.9	-0.9	35	-5	?
32	O=[N+]([O-])c1ccc(S(=O)(=O)NN=Cc2ccc(Cl)c(Cl)c2)cc1	-11	-0.8	0.7	1	-23	14%
33	C=C1C(C(=O)N2CCN(C)CC2)C1C(=O)N1CCN(C)CC1 (stereo unspecified)	2	0.4	-1.6	15	2	-0.6%[38.3 µM]
34	O=C(N/N=C/c1ccco1)c1cc(-c2ccc(Cl)s2)[nH]n1	-10	0.6	2.3	18	-13	5.3%
35	Cc1csc(NC(=O)c2oc3ccccc3c2C)n1	6	0.7	-4.8	4	-24	4.6%
36	NC(=O)C1CCN(C(=O)COc2ccc3c(c2)oc(=O)c2ccccc23)CC1	-8	nt	-4.5	nt	-43	0.3%
37	COc1ccc(N2CCN(C(=O)c3ccccc3NC(=O)c3ccccc3)CC2)cc1	-7	1.1	-1.9	-1	?	-3.6%
38	CC(C)(C)c1ccc(-c2nc(NC(=O)CSc3ncnc4sc5c(c34)CCCC5)ns2)cc1	nt	-0.1	nt	3	nt	0.8%
39	COc1ccccc1S(=O)(=O)Cc1ccc(C(=O)N2CCN(c3cc(Cl)ccc3C)CC2)o1	nt	1.5	nt	5	nt	0.0%
40	CCN1CCN(CCNC(=O)c2ccc(/C=C3\Sc4ccccc4N(Cc4ccccc4F)C3=O)cc2)CC1	-3	0.1	-1.3	14	2	-1.1%
41	O=C(c1noc2c1CCCC2)N1CCCCC1	4	0.0	0.2	12	-10	9.2%[38.3 µM]
42	Cc1ccc(NC(=O)c2cnn3c(C(F)F)cc(-c4ccccc4)nc23)c(C)c1	nt	-0.4	nt	10	nt	1.1%
43	COc1ccccc1NC(=O)Cn1c(=O)n(CC2CCC(C(=O)NCCc3ccccc3)CC2)c(=O)c2ccccc21 (stereo unspecified)	nt	0.3	nt	11	nt	0.2%
44	CCn1c(COc2cccc3ccccc23)nnc1SCC(N)=O	0	0.6	-2.6	-2	-6	0.7%
45	O=c1c(-c2ccccc2)c(O)c2cccc3c2n1CCC3	-1	-0.3	-3.2	4	-6	2.5%
46	O=S(=O)(c1ccccc1)N1CCN(CCc2ccccc2)CC1	4	-0.5	0.1	7	-9	-0.1%
47	CCNC(=O)c1nn(-c2ccccc2C)nc1CO	nt	4.8	nt	27	nt	0.4%
48	COc1cc(S(=O)(=O)N2CCOCC2)cc(C(=O)OCC(=O)NCc2ccco2)c1OC	-4	-0.3	1.9	5	-6	-1.7%
49	Cn1ncc(C#N)c1/N=C/N(Cc1ccccc1)Cc1ccccc1	8	0.5	-3.1	11	-10	-3.2%
50	CCN(CC)c1ccc(/C=N/NC(=O)c2nnn(-c3nonc3N)c2CN(C)C2CCCCC2)cc1	6	-0.3	-0.2	29	-23	-0.2%
51	O=C(Nc1ccccn1)c1ccc2c(c1)S(=O)(=O)c1ccccc1C2=O	3	0.1	1.3	30	-1	5.3%
52	CCCCC[C@H](C)N1C[C@@H](COCc2ccccc2)Oc2cc(N3CCC[C@@H]3COC)ccc2S1(=O)=O	-2	0.1	nt	nt	nt	-0.5%
53	CCOC(=O)C1=C(N)OC2=C(C(=O)CCC2)C1c1ccco1 (stereo unspecified)	-3	0.0	-4.2	-3	11	-0.7%
54	CCC(Sc1nc(C)cc(C)n1)C(=O)Nc1ccc(Cl)cn1 (stereo unspecified)	-3	1.6	-0.3	-3	-36	2.2%
55	O=C(C1=C(O)C(=O)N(CC2CCCO2)C1c1ccc(Cl)cc1Cl)c1ccco1 (stereo unspecified)	-4	-0.5	-0.1	5	-1	9.5%
56	CCCCn1c(N)c(N(CCOC)C(=O)CSc2ccccc2C)c(=O)[nH]c1=O	3	-0.3	-1.8	-8	2	-0.7%
57	COc1ccccc1-c1cc2nc(-c3ccccc3)cc(N3CCN(C(=O)c4ccoc4)CC3)n2n1	17	nt	1.6	nt	nt	-0.9%
58	CC12CC3CC(C1)CC(C(=O)NNC(=O)c1ccncc1)(C3)C2	7	0.5	2.1	-3	-2	1.2%
59	CCCCN(C=O)c1c(CC)nc2c(OCC3CCCCC3)cccn12	11	2.1	-5.4	nt	-7	11%

From PubChem BioAssay
